Assay outcomes (PubChem BioAssay)
GIV Gai3 FP = blocks GIV peptide binding to rat Galpha-i3. P08753. Galpha-i3/FITC-GIV peptide fluorescence polarization, 90 min; active compounds read low; scaled: aluminum fluoride 0%, vehicle 100%. percent of control (FP), % (test concentration not listed). actives 0.42% (n = 210,000). AID 1224905;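 active means replicate mean at 85% of control or lower, very high polarization wells dropped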;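 further: lower values mean more displacement of the GIV peptide from Galpha-i3; wells of about 15 µL received 100 nL stock; the first replicate is given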
Target sequence (P08753 whole entry, looked up): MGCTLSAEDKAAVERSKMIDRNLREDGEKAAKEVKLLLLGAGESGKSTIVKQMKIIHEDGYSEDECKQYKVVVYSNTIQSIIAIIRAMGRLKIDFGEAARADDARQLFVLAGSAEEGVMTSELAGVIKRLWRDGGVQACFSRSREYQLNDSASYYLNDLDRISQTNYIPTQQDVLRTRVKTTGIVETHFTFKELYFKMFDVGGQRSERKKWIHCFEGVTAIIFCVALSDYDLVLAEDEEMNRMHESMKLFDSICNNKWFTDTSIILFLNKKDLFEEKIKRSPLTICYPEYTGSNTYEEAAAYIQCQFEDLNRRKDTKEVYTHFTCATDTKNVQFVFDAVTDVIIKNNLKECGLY
Sa growth 42C = inhibitors of Staphylococcus aureus growth at 42 °C; S. aureus RN4220 growth, OD600, 20 h; active compounds read low; relative growth, % (concentration not given with the values); actives 0.53% (n = 170,000); AID 720641;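 active means growth at 42 °C up to 50% and 20 or more points under that at 30 °C, or under 10% at both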;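 further: 300 nL library stock went into each well; scaled to the means of positive and negative controls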
HCMV NEC inh = disrupts HCMV UL50-UL53 complex binding; HTRF UL50-UL53 interaction, normalized percent inhibition; actives 0.15% (n = 190,000); inhibition, % (test concentration not listed);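 active means both replicates at 50% or more, plus weaker picks with an unusually low signal ratio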;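 further: stock transfer was 100 nL into about 20 µL; 0% = negative control wells and 100% = wells with untagged competitor protein; inactives centre near -12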
Sa growth 42C second temp = recorded beside Sa growth 42C, whose call it bears; relative growth, %; measured here: growth at 30 °C;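 optical density after 20 h as mean of two plates; 100% = untreated growth and lower means inhibition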
* marks the source's active call; other numbers are inactive results; · = no result given. An unsorted share of the library. Share with any hit: about 0.82%.

Order of values – GIV Gai3 FP | Sa growth 42C | Sa growth 42C second temp | HCMV NEC inh
CC(C)c1cc(C(=O)Nc2ccc(N(C)C)cc2)nn1C1CCS(=O)(=O)C1 (stereo not drawn)
 : 110 | · | · | -4
Cc1cc(Cl)ccc1NS(=O)(=O)c1c(C(=O)N2CCC(C)CC2)c(C)n(C)c1C
 : 101 | 81 | 93 | ·
CCSc1nc(=O)c2c(n1C)NC(=O)CC2c1ccc(O)cc1OC (stereo not drawn)
 : 105 | 101 | 90 | 3
O=C(CCNC(=O)c1ccco1)NC12CC3CC(CC(C3)C1)C2
 : · | 82 | 89 | -5
CCCCN1C(=S)NS(=O)(=O)c2ccccc21
 : 104 | 102 | 94 | 0
COc1cc(NC(=O)c2cnn(-c3cccc(F)c3)c2C2CCNCC2)cc(OC)c1OC
 : 99 | 98 | 91 | ·
COc1ccc(N2CC3=C(C2=O)C(c2ccc(O)c(OC)c2)NC(=O)N3C)cc1 (stereo not drawn)
 : 107 | 91 | 82 | -12
CCN1CCCC1CNC(=O)Cn1ncc2c3ccccc3n(Cc3ccc(F)cc3)c2c1=O (stereo not drawn)
 : 106 | 94 | 84 | 1
CC1CCc2onc(C(=O)N3CCN(c4cccc(Cl)c4)CC3)c2C1 (stereo not drawn)
 : 101 | 89 | 75 | ·
CC(C)Oc1cc(O)c2c(=O)cc(-c3ccccc3)oc2c1
 : 97 | · | · | -5
CN(C)S(=O)(=O)c1cccc(C(=O)OCCN2C(=O)c3ccccc3C2=O)c1
 : · | 72 | 89 | -32
O=C1c2cccc3cccc(c23)C(=O)N1CC1CCN(S(=O)(=O)c2cccc3cccnc23)CC1
 : 101 | · | · | -27
Cc1ccc(C)c(NC(=O)c2nn(C)c3c2CS(=O)(=O)c2ccccc2-3)c1
 : 104 | 101 | 89 | -3
CSc1nc(S(=O)(=O)c2ccc(C)cc2)c(N2CCOCC2)s1
 : 100 | 101 | 94 | -4
Cn1c2c(c(=O)n(C)c1=O)C(c1ccccc1[N+](=O)[O-])CC(=O)N2 (stereo not drawn)
 : 108 | 103 | 91 | -16
CCC(=O)Nc1ccc(S(=O)(=O)NCc2cc(C)n(-c3ccc(F)cc3)c2C)cc1
 : 111 | · | · | -4
CN1CCc2c(sc3c2CN(C(=O)NCc2ccc(F)cc2)C(c2ccc(F)cc2)c2cccn2-3)C1 (stereo not drawn)
 : 108 | · | · | -18
Cc1nc2c3ccccc3ncn2n1
 : · | 99 | 92 | -7
O=C(Nc1ccccc1)C(F)(F)F
 : 107 | 106 | 85 | ·
COc1cccc(-c2nc3c(c(SC)n2)Cc2c(CO)cnc(C)c2O3)c1
 : 105 | 86 | 94 | -2
CN1CCc2c(n(CC(O)CN3CCCC3)c3ccccc23)C1=O (stereo not drawn)
 : 101 | 94 | 80 | ·
COC(=O)c1ccc(NC(=O)C(c2ccccc2)c2ccccc2)cc1
 : · | 128 | 91 | -29
CCOC(=O)C1CCN(C(=O)Cn2nc(C)n3c(cc4cc(F)ccc43)c2=O)CC1
 : 98 | 128 | 84 | -82
CCS(=O)(=O)N(C)c1ccc(C(N)=O)cc1
 : 109 | 99 | 103 | 4
NNC(=O)Cn1nc2n(c1=O)-c1ccccc1SC2
 : 98 | 98 | 92 | -8
COc1ccc(-c2noc(-c3ccc(N4CCCCC4)c([N+](=O)[O-])c3)n2)cc1
 : 97 | 93 | 90 | -13
O=S(=O)(c1ccc2c(c1)OCCO2)N1CCN(Cc2nc3ccccc3o2)CC1
 : 109 | · | · | -9
COc1ccc(-n2c(SCC(=O)O)nc3sc4c(c3c2=O)CCC4)cc1
 : 106 | · | · | -36
CN(C)c1ccc(NC(=O)CSC2=Nc3ccccc3C3=NC(CC(=O)NCc4ccccc4)C(=O)N23)cc1 (stereo not drawn)
 : 102 | 110 | 87 | ·
O=C(Nc1cc(-c2cccc(F)c2)no1)C1CCCN(c2nc3cccnc3s2)C1 (stereo not drawn)
 : 104 | · | · | -4

Random excerpt: five records from the list, in no set order.
Order of values – GIV Gai3 FP | Sa growth 42C | Sa growth 42C second temp | HCMV NEC inh
CCN1CCCC1CNC(=O)Cn1ncc2c3ccccc3n(Cc3ccc(F)cc3)c2c1=O (stereo not drawn)
 : 106 | 94 | 84 | 1
COC(=O)c1ccc(NC(=O)C(c2ccccc2)c2ccccc2)cc1
 : · | 128 | 91 | -29
CCOC(=O)C1CCN(C(=O)Cn2nc(C)n3c(cc4cc(F)ccc43)c2=O)CC1
 : 98 | 128 | 84 | -82
COc1cc(NC(=O)c2cnn(-c3cccc(F)c3)c2C2CCNCC2)cc(OC)c1OC
 : 99 | 98 | 91 | ·
COc1cccc(-c2nc3c(c(SC)n2)Cc2c(CO)cnc(C)c2O3)c1
 : 105 | 86 | 94 | -2

(continued)
Order of values – GIV Gai3 FP | Sa growth 42C | Sa growth 42C second temp | HCMV NEC inh
Cc1ccc(Cn2c(=O)c3ccccc3n3c(-c4cccc(O)c4)nnc23)cc1
 : 102 | 101 | 89 | -4
Cc1cc(C)c(C#N)c(SC2CCc3ccccc3C2=O)n1 (stereo not drawn)
 : 97 | 101 | 96 | -3
O=C(NC1CCCCC1)C(c1cccs1)N(C(=O)CC1CC2CCC1C2)c1ccccc1 (stereo not drawn)
 : · | 80 | 89 | 3
CCOC(=O)CSc1nnc(-c2ccc3ncccc3c2)n1C
 : 103 | 90 | 85 | -44
CC(C)c1ccc(N2C(=O)c3cc4ccsc4n3CC2(C)C(=O)NC2CCCCC2)cc1 (stereo not drawn)
 : 111 | · | · | 3
COC(=O)c1cc(S(=O)(=O)N(C)C2CCCCC2)c[nH]1
 : 105 | 99 | 81 | ·
CCOC(=O)c1oc2ccccc2c1NC(=O)CSc1nnc(SCC)s1
 : · | 91 | 89 | -18
NS(=O)(=O)c1ccc(S(=O)(=O)N(Cc2ccccc2F)CC2CCCO2)cc1 (stereo not drawn)
 : 98 | 94 | 79 | -26
CCCNC(=O)c1c(C)oc2ncnc(N3CCCCC3)c12
 : 104 | 101 | 91 | -16
CCOC(=O)c1cc(-c2ccc(/C=C3\C(=O)N(c4cccc(C(=O)O)c4)N=C3C)o2)ccc1Cl
 : 97 | · | · | -46
O=C(CO/N=C/c1ccccc1)N=Nc1c(O)n(CN2CCCC2)c2ccccc12
 : 108 | 97 | 92 | -27
O=S(=O)(NCC(c1ccco1)S(=O)(=O)c1cccs1)c1ccc(F)c(C(F)(F)F)c1 (stereo not drawn)
 : 97 | 127 | 89 | ·
Cc1ccn2c(c1)nc(=O)c1cc(S(=O)(=O)N3CCCCC3)ccc12
 : 97 | 91 | 86 | ·
CCc1cccc(NC(=O)c2oc3ccc4c(c3c2C)C(=O)CC(C)(C)O4)c1
 : 97 | 111 | 95 | ·
COC(=O)c1cc(-c2cc(OC)c(OC)c(OC)c2)nn1-c1ccccn1
 : · | 91 | 84 | -34
CN(C)c1ccc(CNC(=O)c2cc3cc(S(=O)(=O)N4CCCCC4)ccc3n2C)cc1
 : 99 | 91 | 99 | ·
CCN(C1CCCCC1)S(=O)(=O)c1ccc(C)cc1
 : · | 96 | 91 | -8
COc1ccc2c(Sc3ccccc3)c(C(=O)NCc3ccc(OC(C)C)cc3)[nH]c2c1
 : 102 | 92 | 82 | -9
N#Cc1ccc(/C=N/NC=O)cc1
 : · | 108 | 103 | -32
COc1ccc(NC(=O)C2CC(=O)N/C(=N/N=C/c3ccccc3)S2)cc1 (stereo not drawn)
 : 103 | 100 | 94 | -2
CCn1c(C(=O)O)c(CC(=O)N(C)c2cc(Cl)c(OC)cc2OC)c2ccccc21
 : 97 | · | · | -1
CC(C)CCNc1ncnc2c1nnn2Cc1ccccc1
 : 100 | 109 | 87 | -7
O=S(=O)(Nc1cccc(I)c1)c1cccs1
 : · | 95 | 101 | 14
O=C(NCC(F)(F)F)C1COc2ccccc2O1 (stereo not drawn)
 : · | 105 | 99 | 11
Cc1nc2ccccc2n1C(F)(F)C(O)c1ccco1 (stereo not drawn)
 : · | 112 | 85 | -17
CC(CNS(=O)(=O)c1ccccc1)(c1ccccc1)N1CCCCC1 (stereo not drawn)
 : · | 92 | 94 | 5
Cc1cc2c(cc3c(SCc4ccccc4Cl)nnc(C)n32)o1
 : 100 | 103 | 87 | ·
COc1cccc(OC)c1C(=O)NC(=O)Nc1c(C)cccc1C
 : 105 | 93 | 82 | 44
COC(=O)Oc1ccc2c(=O)c(Oc3ccc(C)cc3)coc2c1
 : 102 | 98 | 73 | 4
COc1ccc(N2CCN(Cc3nc4c(c(=O)[nH]c(=O)n4C)n3Cc3ccc(Cl)cc3)CC2)cc1
 : 101 | 81 | 103 | 13

More structures
Key to letters: A = GIV Gai3 FP; B = Sa growth 42C; C = Sa growth 42C second temp; D = HCMV NEC inh
> C=CCNC(=O)CN1C(=O)/C(=C/c2ccccc2)Sc2ccccc21
  A = 104	B = 86	C = 82	D = ·
> CN(CCC#N)C(=O)C1CC(=O)N(Cc2ccco2)C1 (stereo not drawn)
  A = ·	B = 92	C = 93	D = -12
> Nc1n[nH]c(CC2CCCCC2)n1
  A = 102	B = 77	C = 75	D = -11
> CN(C(=S)NCc1ccc2c(c1)OCO2)C1CCS(=O)(=O)C1 (stereo not drawn)
  A = ·	B = 92	C = 90	D = -12
> CC(=O)Nc1ccc(C(C)(C)C)cc1N
  A = 108	B = 102	C = 97	D = -7
> CCOC(=O)N1CCC(N2Cc3cccc(C(=O)Nc4cc(F)ccc4F)c3C2=O)CC1
  A = 102	B = 96	C = 92	D = -2
> CN(Cc1ccccc1)C(=O)COC(=O)c1ccc(Br)o1
  A = ·	B = 103	C = 84	D = -30
> CCOc1ccc(S(=O)(=O)[C@H]2CS(=O)(=O)C[C@@H]2NCCc2c[nH]c3ccccc23)cc1
  A = 99	B = ·	C = ·	D = -3
> O=c1c2oc3ccccc3c2nc(SCc2nc(-c3ccccc3)no2)n1C1CCCC1
  A = 106	B = ·	C = ·	D = 1
> COc1cc2c(cc1OC)CN(C(=O)Cn1c(C)cc(C)c(C#N)c1=S)CC2
  A = ·	B = 79	C = 69	D = -15

Only Sa growth 42C second temp, HCMV NEC inh and Sa growth 42C (4 entries from above):
| mol | Sa growth 42C second temp | HCMV NEC inh | Sa growth 42C |
| --- | --- | --- | --- |
| CC(=O)Nc1ccc(C(C)(C)C)cc1N | 97 | -7 | 102 |
| CCOC(=O)N1CCC(N2Cc3cccc(C(=O)Nc4cc(F)ccc4F)c3C2=O)CC1 | 92 | -2 | 96 |
| CN(Cc1ccccc1)C(=O)COC(=O)c1ccc(Br)o1 | 84 | -30 | 103 |
| CCOc1ccc(S(=O)(=O)[C@H]2CS(=O)(=O)C[C@@H]2NCCc2c[nH]c3ccccc23)cc1 | · | -3 | · |

Five entries from above, sorted by the value under Sa growth 42C second temp, rising.
| compound | GIV Gai3 FP | Sa growth 42C | Sa growth 42C second temp |
| --- | --- | --- | --- |
| COc1cc2c(cc1OC)CN(C(=O)Cn1c(C)cc(C)c(C#N)c1=S)CC2 | · | 79 | 69 |
| C=CCNC(=O)CN1C(=O)/C(=C/c2ccccc2)Sc2ccccc21 | 104 | 86 | 82 |
| CN(Cc1ccccc1)C(=O)COC(=O)c1ccc(Br)o1 | · | 103 | 84 |
| CN(C(=S)NCc1ccc2c(c1)OCO2)C1CCS(=O)(=O)C1 (stereo not drawn) | · | 92 | 90 |
| CN(CCC#N)C(=O)C1CC(=O)N(Cc2ccco2)C1 (stereo not drawn) | · | 92 | 93 |

The listing continues.
Key to letters: A = GIV Gai3 FP; B = Sa growth 42C; C = Sa growth 42C second temp; D = HCMV NEC inh
> COc1ccc(-c2cnc(NC(=O)NC(C)C)n2C)cc1
  A = 102	B = ·	C = ·	D = -24
> N#CC1=C(N)OC2=C(C(=O)CCC2)C12C(=O)Nc1ccc(Br)cc12 (stereo not drawn)
  A = 100	B = ·	C = ·	D = -5
> Cc1ccc(C)c(N2CCN(c3nc4ccccc4c(=O)n3-c3ccccc3)CC2)c1
  A = 112	B = 87	C = 105	D = -11
> CCOC(=O)c1sc(N)c(C#N)c1COC(=O)CC1Sc2ccccc2NC1=O (stereo not drawn)
  A = ·	B = 96	C = 96	D = 8
> CC(C)(C)OC(=O)N1CCN(C(=O)c2ccccc2C(=O)O)CC1
  A = 103	B = 112	C = 91	D = -4
> CCN(CC)c1cc(Oc2ccccc2)ncn1
  A = 107	B = 87	C = 84	D = -12
